FEN1 inhibitor – blocks human flap endonuclease 1. Recombinant FEN1 flap cleavage, fluorescence, 15 min. Potency, µM (series often up to 114 µM), for the others: at the highest dose activity change, negative = inhibition, usual class: inhibitors. 390,000 tested, 0.35% active; further: nearly all actives have a fitted effect of over 65% in size
Target sequence (P39748 whole entry, looked up): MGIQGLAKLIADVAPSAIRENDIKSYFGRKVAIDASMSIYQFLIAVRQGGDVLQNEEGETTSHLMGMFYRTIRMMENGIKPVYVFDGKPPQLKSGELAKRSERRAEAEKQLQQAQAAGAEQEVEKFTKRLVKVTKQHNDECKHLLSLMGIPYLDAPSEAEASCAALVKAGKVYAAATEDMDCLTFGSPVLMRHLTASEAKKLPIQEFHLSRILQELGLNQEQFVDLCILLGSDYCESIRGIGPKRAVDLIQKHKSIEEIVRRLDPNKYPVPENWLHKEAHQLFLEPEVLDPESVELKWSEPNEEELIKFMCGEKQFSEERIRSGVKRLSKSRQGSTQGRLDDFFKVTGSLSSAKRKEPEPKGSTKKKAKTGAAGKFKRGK
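Steps: FEN1 (10 nM) dispensed; compound added by pin tool; 15 min at room temperature; substrate added to 50 nM final; reads at 0 min and 15 min; data normalized and fitted (four-parameter Hill).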
KAT2A inh – blocks human GCN5L2 histone acetyltransferase; Q92830; GCN5L2 HAT assay, ThioGlo1 CoA-SH fluorescence; Potency, µM (titrated, usually from 58.9 µM), for the others: top-dose activity change, negative = inhibition, usual class: inhibitors; 390,000 tested, 0.21% active
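GCN5L2 (20 nM) in 50mM HEPES pH 7.5, 0.1mM EDTA, 0.01% Tween-20 preincubated 15 min with compounds at room temperature. Reaction started with H3(1-25) 75uM, acetyl-CoA 70uM, ThioGlo1 50uM; CoA-thiol fluorescence (Ex340/Em540) read at 0 and 20 min.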
The depositor's hits bear a star; u = inconclusive; x = no result given; & = joins results of further samples. The call rests on the fitted dose curve; in most records, active means well fitted curve in the direction sought with a large enough effect; inconclusive means small, poorly fitted or top-dose-only effect, or another doubt; inactive means no such curve, though single readings can be large; an effect the other way counts as inactive or inconclusive. On the % scale 0 is the no-effect control and ±100 the full control effect; potency means the concentration at half of the fitted maximal effect.

1. COc1ccc(-c2c(C(C)=O)c(C)n(C)c2C)cc1
2. Cc1csc(=O)n1CCC(=O)OCC(=O)Nc1cc([N+](=O)[O-])ccc1Cl
3. CCc1ccc(CN(C)C(=O)CC2C(=O)NCCN2Cc2ccoc2)cc1 (configuration not stated)
4. Cc1ccc(-c2csc(NC(=O)c3ccco3)n2)cc1C
5. O=C(CSc1nnc2ccc(-c3ccc(F)cc3)nn12)NCC1CCCO1 (configuration not stated)
6. COCCn1c(SCC(=O)Nc2ccccc2F)nnc1-c1ccoc1C
7. Cc1scc(C(=O)Nn2cnnc2)c1-c1ccccc1
8. O=C(CS(=O)(=O)c1ccccc1)Nc1ccc(S(=O)(=O)Nc2ncccn2)cc1
9. CCCCN(C(=O)c1cccc(S(=O)(=O)N2CCCCC2)c1)C1CCS(=O)(=O)C1 (configuration not stated)
10. COc1ccc(NC(=O)C(CC(C)C)NC(=O)C2CCC(C)CC2)c(OC)c1 (configuration not stated)

entry no. | 1 | 2 | 3 | 4 | 5 | 6 | 7 | 8 | 9 | 10
FEN1 inhibitor | 0% | -6% | 2% | -23% | -12% | -12% | -6% | -2% | 18%&16% | 9%
KAT2A inh | -5% | 1% | -1% | -10% | -6% | -3% | -13% | 5% | -3%&0% | 0%

11. CC(C)(C)c1ccc(OCCC(=O)OCC(=O)NC2CCS(=O)(=O)C2)cc1 (configuration not stated)
12. O=C(Nc1nccs1)c1ccccc1Br
13. Cc1cc(N)n(-c2ccccc2)n1
14. Cc1ccccc1-n1ncc2c1CC(C)(C)CC2NC(=O)c1cn[nH]c1C (configuration not stated)
15. CC(C)CNc1oc(-c2ccccc2Cl)nc1C#N
16. Cc1nc(NC(=O)CN2CCN(c3cccc(Cl)c3)CC2)sc1C(=O)N(C)C
17. CCc1ccc(NC(=O)CSc2nnc(-c3ccco3)o2)cc1
18. COc1ccc(C(=O)NCC(=O)O)cc1
19. COc1ccc(/C=N/NC(=O)c2ccncc2)c(C(=O)O)c1OC
20. COc1cccc(-c2c(C#N)c(N)nc3c2c(=O)nc2sccn23)c1

entry no. | 11 | 12 | 13 | 14 | 15 | 16 | 17 | 18 | 19 | 20
FEN1 inhibitor | 4% | 0% | 4% | -2% | -1% | 18% | -4% | -6% | -3% | x
KAT2A inh | -1% | 5% | -1% | -2% | -26% | -12% | -5% | x | -5%&-2% | -11%

21. O=S(=O)(c1ccc(Cl)cc1)c1cnc(-c2cccnc2)nc1-c1ccccc1
22. NC(=O)CC1C(=O)N(c2ccccc2)C(=S)N1NC(=O)c1ccccc1 (configuration not stated)
23. COc1ccc(/C=C/C(=O)NC(=S)NNC(=O)c2ccco2)cc1
24. CC(=O)Nc1ccc(NC(=O)C2CCCN2C(=O)Nc2ccccc2[N+](=O)[O-])cc1 (configuration not stated)
25. COc1ccc(C(=O)C(=O)c2ccc(OCCO)cc2)cc1
26. CSc1ncc(-c2ccc(Cl)cc2)[nH]1
27. NC(=O)COC(=O)c1ccccc1OCc1ccccc1Cl
28. COC(=O)c1cccc(Cn2cc([N+](=O)[O-])cn2)c1
29. Cc1ccc(OCCSc2nc3ccccc3n2CC(=O)O)cc1C
30. CCCOc1ccc(C(=O)CCC(=O)NNC(=O)Cn2nc(C)cc2C)cc1

entry no. | 21 | 22 | 23 | 24 | 25 | 26 | 27 | 28 | 29 | 30
FEN1 inhibitor | -3% | 11% | 5% | -4% | 0% | -9% | 4% | x | -15% | 6%
KAT2A inh | u | -11% | -4% | 4% | -1% | -6% | -6% | -1% | 1% | 3%

Shown as labelled records: entries from further up
(16) Cc1nc(NC(=O)CN2CCN(c3cccc(Cl)c3)CC2)sc1C(=O)N(C)C
  FEN1 inhibitor = 18%; KAT2A inh = -12%

(17) CCc1ccc(NC(=O)CSc2nnc(-c3ccco3)o2)cc1
  FEN1 inhibitor = -4%; KAT2A inh = -5%

(18) COc1ccc(C(=O)NCC(=O)O)cc1
  FEN1 inhibitor = -6%; KAT2A inh = x

(continued)
31. COc1ccc(NC(=O)C/C(C)=N/NC(=O)c2cnccn2)cc1
32. CCCc1ccc(OCC(O)CN2CCCC2)cc1 (configuration not stated)
33. COc1ccc(CNC(=O)CC23CC4CC(CC(C4)C2)C3)cc1OC
34. Cc1ccc(Nc2ncnc3nc[nH]c23)cc1Cl
35. CCn1c(SCC(N)=O)nnc1-c1ccc(S(=O)(=O)N2CCN(C)CC2)cc1
36. CCOCCCN(Cc1cc2cc(C)cc(C)c2[nH]c1=O)C(=O)N(CC)CC
37. O=C(Cn1cnc2c(nnn2Cc2ccc(F)cc2)c1=O)NCc1ccccc1
38. CSCC[C@H](NC(=O)CC(C)(C)C)c1nc2ccccc2[nH]1
39. CCCCOc1ccc(-c2nc(/C=N/c3nccs3)c(O)o2)cc1
40. CC(O)CNc1cc(N)c([N+](=O)[O-])cc1[N+](=O)[O-] (configuration not stated)

entry no. | 31 | 32 | 33 | 34 | 35 | 36 | 37 | 38 | 39 | 40
FEN1 inhibitor | 2% | 1% | -1% | -1% | -3% | -12% | 17% | 0% | -3% | -2%
KAT2A inh | -6% | 1% | -3% | -1% | -13% | -16% | -9% | 2% | 9% | -4%

41. Cc1cc(NC(=O)CCN2C(=O)C3C4C=CC(C4)C3C2=O)c2ccccc2n1 (configuration not stated)
42. Cc1ccc(CC(=O)NCCCc2ccccc2)cc1
43. COc1ccc(OC)c(NC(=O)C2CCN(S(=O)(=O)c3ccc4c(c3)CC(C)N4C(C)=O)CC2)c1 (configuration not stated)
44. CSc1ncccc1C(=O)OCC(=O)N(C)C
45. COc1ccc2[nH]c3c(c2c1)CCN1C(=O)N([C@@H](C)C(=O)NCc2ccccc2OC)C(=O)[C@]31C
46. O=C(Nc1ccccc1)c1cccc(N2CCCC2=O)c1
47. C/C(=N\NC(=O)c1ccccc1F)c1cccc(NC(=O)c2ccc(C)cc2)c1
48. CCc1nnc(NC(=O)CSc2nnc3c(C)cc4c(C)ccc(C)c4n23)s1
49. CC(C)NC(=O)NC(=O)COC(=O)CCOc1ccccc1
50. CC1CC(C)CN(S(=O)(=O)c2ccc3c(c2)NC(=O)C(C)C(=O)N3)C1 (configuration not stated)

entry no. | 41 | 42 | 43 | 44 | 45 | 46 | 47 | 48 | 49 | 50
FEN1 inhibitor | 7% | 2% | -15%&1% | 3% | 11% | 1% | -3% | -1% | -19% | 7%
KAT2A inh | u | -20% | -17%&-7% | -6% | -3% | 1% | -1% | 0% | 2% | u

51. CCCNC(=O)c1ccc2c(c1)nc(C)n2-c1cccc(Cl)c1
52. Cc1sc2nc(Cc3ccccc3)[nH]c(=O)c2c1-c1ccccc1
53. O=C(COC(=O)C(O)C(O)C(=O)OCC(=O)c1ccc(C(F)(F)F)cc1)c1ccc(C(F)(F)F)cc1 (configuration not stated)
54. Cc1ccccc1C1CCCN(Cc2nc(CC3CC3)no2)C1 (configuration not stated)
55. CCC(=O)Nc1nnc(SCc2ccccc2F)s1
56. CCOc1nc2cnccc2n(CC(=O)Nc2ccc(C)c(C)c2)c1=O
57. O=C(NCCCN1CCOCC1)c1ccccc1N1C(=O)[C@@H]2Cc3c([nH]c4ccccc34)C(c3ccc(F)cc3)N2C1=O (some centres not stated)
58. COc1ccc(/C(O)=C2/C(=O)C(=O)N(c3ncccn3)C2c2ccc(F)cc2)cc1 (configuration not stated)
59. CCOC(=O)C1CCCN(CC(=O)c2ccc(F)cc2)C1 (configuration not stated)
60. O=C(Cn1c(NCCCO)nc2ccccc21)c1ccco1

entry no. | 51 | 52 | 53 | 54 | 55 | 56 | 57 | 58 | 59 | 60
FEN1 inhibitor | -1% | -1% | 7% | 13% | -11% | -10% | -19% | 16% | 2% | -9%
KAT2A inh | -6% | -3% | -26% | -5% | 0% | -1% | -13% | -9% | 2% | -1%

Next section.
Below each compound: FEN1 inhibitor, KAT2A inh
(61) C/C(=C\C(=O)c1ccc(F)cc1)NCc1ccc2c(c1)OCO2
    -8%, -11%
(62) CCOc1ccc(N(CC(=O)OC)S(=O)(=O)c2c(C)noc2C)cc1
    13%, 4%
(63) Cc1nn(-c2ccccc2)c(Cl)c1/C=N/NC(=O)c1ccncc1
    -1%, -2%
(64) CCOC(=O)c1nn(-c2ccccc2C)c2nc(-c3ccc(Cl)cc3)c(C#N)c(=O)n12
    -11%, 0%
(65) Cc1cc(/C=N/N2CCN(C)CC2)c(C)n1-c1ccccc1F
    -4%, -18%
(66) C=CCn1c(-c2ccc(S(=O)(=O)N3CCOCC3)cc2)csc1=Nc1ccccc1
    13%, -9%
(67) CCSc1ncc(Cl)c(C(=O)Nc2ccc(S(N)(=O)=O)cc2)n1
    -10%, -6%
(68) COc1cnc(SC(C)C)[nH]c1=O
    4%, -13%
(69) CCc1ccc(OCc2nnc(SCC(=O)NCc3ccco3)o2)cc1
    -7%, -24%
(70) CNC(=O)COC(=O)c1ccc2c(c1)S(=O)(=O)c1ccccc1C2=O
    1%, 0%
(71) O=C(NC(=S)Nc1ccccc1N1CCCCC1)c1ccco1
    -20%, -10%
(72) Nc1ccc(C(=O)CC(=O)Nc2ccc(Cl)cc2)cc1
    7%, -1%
(73) CCOC(=O)C1CCCN(S(=O)(=O)c2ccc(S(=O)(=O)N(CC)CC)cc2)C1 (configuration not stated)
    -13%, -2%
(74) COc1ccc(Br)c(C(=O)NC2CCCC2)c1
    17%, -2%
(75) CC(C)c1ccc(/C=C/C(=O)Nc2ccc(CN3CCOCC3)cc2)cc1
    -21%, 0%
(76) O=C(N/N=C/c1cn(CC(=O)N2CCOCC2)c2ccccc12)c1cccnc1
    2%, -7%
(77) O=C(COC(=O)c1ccccc1)c1ccc(Br)cc1
    -4%, 1%
(78) Cc1c(C(=O)Nc2c(N)nc(SCC(=O)NCC3CCCO3)[nH]c2=O)cccc1[N+](=O)[O-] (configuration not stated)
    3%, -3%
(79) c1ccc(-c2csc(NC3CCCCC3)n2)cc1
    -18%, -2%
(80) CCCC1=NN(C(=O)Cc2ccc([N+](=O)[O-])cc2)C(O)(C(F)(F)F)C1 (configuration not stated)
    -1%, -4%
(81) CSCCC(NS(=O)(=O)c1ccc(C)cc1)C(=O)N1CCCC1 (configuration not stated)
    1%, -18%
(82) Cc1cccc2nc(COc3ccc4ccccc4c3Br)cn12
    -7%, -11%
(83) COc1ccccc1NC(=O)NCCCCc1ccccc1
    -1%, -5%
(84) Cc1ccc(C(=O)N2CCN(c3ccccc3)CC2)cc1C
    7%, -5%
(85) COc1cc(/C=N/Nc2ccc([N+](=O)[O-])cn2)cc(OC)c1O
    0%, -1%
(86) O=C(Cc1cccs1)Nc1ccc(NC(=O)c2ccco2)cc1
    -1%, x
(87) CCOC(=O)c1sc(NC(=O)Nc2ccccc2F)nc1C
    3%, -1%
(88) COc1cc(/C=N\NC(=O)c2cccc(Cl)c2)ccc1Oc1ccc([N+](=O)[O-])cn1
    -15%, -8%
(89) N/C(=N\OC(=O)COc1ccccc1Cl)c1ccc(Cl)cc1
    -3%, -4%
(90) CCC(=O)N1N=C(c2cccs2)CC1c1ccc(OC)cc1 (configuration not stated)
    -2%, -2%
(91) Cn1c(=O)c2c(SCc3cccnc3)nc(CC(C)(C)C)nc2n(C)c1=O
    u, -10%
(92) COC(=O)c1c(C(=O)OC)c(-c2ccccc2)n2c1CCC2
    -1%, -5%

Among those listed so far, these have an aryl thioether with sulfur outside any ring:
Below each compound: FEN1 inhibitor, KAT2A inh
(5) O=C(CSc1nnc2ccc(-c3ccc(F)cc3)nn12)NCC1CCCO1 (configuration not stated)
    -12%, -6%
(6) COCCn1c(SCC(=O)Nc2ccccc2F)nnc1-c1ccoc1C
    -12%, -3%
(17) CCc1ccc(NC(=O)CSc2nnc(-c3ccco3)o2)cc1
    -4%, -5%
(26) CSc1ncc(-c2ccc(Cl)cc2)[nH]1
    -9%, -6%
(29) Cc1ccc(OCCSc2nc3ccccc3n2CC(=O)O)cc1C
    -15%, 1%
(35) CCn1c(SCC(N)=O)nnc1-c1ccc(S(=O)(=O)N2CCN(C)CC2)cc1
    -3%, -13%
(44) CSc1ncccc1C(=O)OCC(=O)N(C)C
    3%, -6%
(48) CCc1nnc(NC(=O)CSc2nnc3c(C)cc4c(C)ccc(C)c4n23)s1
    -1%, 0%
(55) CCC(=O)Nc1nnc(SCc2ccccc2F)s1
    -11%, 0%
(67) CCSc1ncc(Cl)c(C(=O)Nc2ccc(S(N)(=O)=O)cc2)n1
    -10%, -6%
(68) COc1cnc(SC(C)C)[nH]c1=O
    4%, -13%
(69) CCc1ccc(OCc2nnc(SCC(=O)NCc3ccco3)o2)cc1
    -7%, -24%
(78) Cc1c(C(=O)Nc2c(N)nc(SCC(=O)NCC3CCCO3)[nH]c2=O)cccc1[N+](=O)[O-] (configuration not stated)
    3%, -3%
(91) Cn1c(=O)c2c(SCc3cccnc3)nc(CC(C)(C)C)nc2n(C)c1=O
    u, -10%

An excerpt; most or all hits stand in other tables.
